AF4-AF9 inh = inhibitors of human MLL-AF4/AF9 interaction; AlphaScreen, biotin-AF4 peptide binding to FLAG-AF9; inhibition, % at 10 µM; 0.47% of 350,000 active;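 active = every replicate reaching a set inhibition limit, whatever the replicate mean, cut at about 25% in these data; inconclusive = mean inhibition reaches that limit but some replicates miss it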;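 also: 0% = plate neutral control median and 100% = total signal loss; the record names both 10 and 1 µM as test concentration; the first replicate is given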
RanGTP-Imp inh = disruptors of Ran-importin-beta complex formation – biochemical, FRET, CFP-Ran, YFP-importin-beta, homogeneous, primary screen; 1.1% of 300,000 active; inhibition, % (concentration not given with the values); cell-free CFP-Ran/YFP-importin-beta FRET ratio;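 active = most replicates above 15%; inconclusive = exactly half above 15%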;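 also: 0% = DMSO wells and 100% = Ran loaded with GDP instead of GTP; wells of about 40 µL received 100 nL stock; the first replicate is given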
Vif TR-FRET = HIV-1 Vif–A3G interaction blockers – biochemical, TR-FRET, GST-Vif 1-94, biotin-A3G peptide, dose response retest, primary screen (AID 1117319). 0.57% of 260,000 active. inhibition, %; hits with a dose series show IC50 in µM. TR-FRET GST-Vif / biotin-A3G peptide binding; higher % means a stronger effect; test concentration not given here; strong numbers were not always called active;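 active = above the screen mean plus three standard deviations and confirmed in dose response; inconclusive = results disagree or hit not tested in dose response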;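 also: Vif residues 1-94 fused to GST binding biotinylated APOBEC3G peptide 110-148; 0% = full assay without inhibitor and 100% = GST in place of GST-Vif; retest series ran down from 100 µM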
HNF4A DNA FP = change in binding of human HNF4 alpha to DNA | HNF4a-FITC DNA binding, fluorescence polarization, 1 h | activity change, % at 10 µM | 0.3% of 360,000 active; in the data active = activity change above about 30%, passing the limit was not always enough;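 also: controls were the assay level and a saturating level of protein; the project sought stronger binding though the title names inhibitors; some compounds called inactive have numbers as strong as hits; positive values seem to mean higher polarization but the record does not say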
Target sequence (P41235 whole entry, looked up): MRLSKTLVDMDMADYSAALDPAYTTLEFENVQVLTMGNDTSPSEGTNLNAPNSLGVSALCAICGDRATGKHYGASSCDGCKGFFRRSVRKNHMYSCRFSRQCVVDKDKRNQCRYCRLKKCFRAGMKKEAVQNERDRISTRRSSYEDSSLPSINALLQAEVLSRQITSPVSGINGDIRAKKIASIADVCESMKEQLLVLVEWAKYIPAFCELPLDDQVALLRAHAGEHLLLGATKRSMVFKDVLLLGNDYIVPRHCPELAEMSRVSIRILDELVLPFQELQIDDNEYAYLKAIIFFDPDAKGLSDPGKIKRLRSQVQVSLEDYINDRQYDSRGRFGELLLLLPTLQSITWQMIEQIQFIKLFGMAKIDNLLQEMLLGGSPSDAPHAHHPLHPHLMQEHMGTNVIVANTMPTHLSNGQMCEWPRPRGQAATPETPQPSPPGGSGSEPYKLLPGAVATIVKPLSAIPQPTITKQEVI
FGF22 binding = shifts melting point of recombinant human FGF22 | AID 651658 | 1.5% of 340,000 active | calls only at 9.99 µM | Q9HCT0 | recombinant FGF22 thermal shift, SYPRO orange fluorescence; percent of sucrose octasulfate shift, DMSO zero;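 active = melting point raised past a set limit in the mean and every replicate; inconclusive = no clear call; three in four hits are not shown here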
Target sequence (Q9HCT0 whole entry, looked up): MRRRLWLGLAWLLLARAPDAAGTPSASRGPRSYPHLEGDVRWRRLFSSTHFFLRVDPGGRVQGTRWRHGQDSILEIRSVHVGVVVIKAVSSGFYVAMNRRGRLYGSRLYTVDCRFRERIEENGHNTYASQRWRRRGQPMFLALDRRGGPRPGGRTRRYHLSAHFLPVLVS
UCH37 inh = inhibitors of human deubiquitinating enzyme UCH37; Q9Y5K5; purified proteasome/UCH37, Ub-AMC cleavage fluorescence; AID 588478; inhibition, % (concentration not given with the values); 0.33% of 330,000 active;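 active = mean of two replicates above 20%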;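 also: 0% = compound-free wells with enzyme and 100% = wells lacking proteasome; stock transfer was 100 nL into about 20 µL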
Target sequence (Q9Y5K5 whole entry, looked up): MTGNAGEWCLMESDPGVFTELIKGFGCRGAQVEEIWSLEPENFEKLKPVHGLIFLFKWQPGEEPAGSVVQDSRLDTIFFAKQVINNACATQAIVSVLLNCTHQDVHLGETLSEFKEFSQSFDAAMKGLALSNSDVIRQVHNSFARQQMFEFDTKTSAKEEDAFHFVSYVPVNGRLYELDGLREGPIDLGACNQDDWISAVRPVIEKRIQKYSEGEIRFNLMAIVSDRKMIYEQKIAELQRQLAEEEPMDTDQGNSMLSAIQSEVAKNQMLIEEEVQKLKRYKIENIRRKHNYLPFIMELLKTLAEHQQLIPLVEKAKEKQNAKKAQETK
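Schedule: 30 min plus 25 min, room temperature / Material: human UCH37 within purified proteasomes / Technique: AMC fluorescence intensity at 355/460 nm / Buffer or medium: pH 7.4 Tris-HCl (50 mM) with ovalbumin, ATP-MgCl2, DTT / Controls: wells without proteasome as full block, compound-free enzyme plus substrate as uninhibited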
Ecoli growth = E. coli growth inhibition; OD600 absorbance (test concentration not listed); Escherichia coli growth, OD600, 23 h; hits give low values; 0.21% of 330,000 active;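 active = OD600 absorbance below the run mean of sample wells minus 3.6 SD, in any replicate, cut at about 0.56 in these data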;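 also: stock transfer was 300 nL into about 60 µL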
Starred values were filed as active, the others as inactive; i = inactive; ? = inconclusive; / = not tested or not shown. Not all compounds are listed; count on the stated rates, not on these rows.

SMILES | AF4-AF9 inh | RanGTP-Imp inh | Vif TR-FRET | HNF4A DNA FP | FGF22 binding | UCH37 inh | Ecoli growth
CCOC(=O)c1sc(NC(=O)CSc2ncn[nH]2)c(C#N)c1C | / | 6.8 | -4% | 3.4 | / | 7.8 | 0.69
CCOC(=O)C1(Nc2nccs2)Sc2ccccc2NC1=O (centres undefined) | / | 0.8 | -2% | 1.1 | / | -1.8 | 0.71
CCN(CC)c1ccc(NC(=S)NC(=O)c2ccco2)cc1 | 11 | -1.2 | 29% | -0.2 | i | 5.5 | 0.7
Cc1[nH]c(=O)[nH]c(=O)c1/C=N/NC(=O)[C@H](CC(C)C)NC(=O)OC(C)(C)C | / | -0.9 | 15% | -1.0 | / | / | /
CCOC(=O)C1=C(c2ccccc2)NC(=O)NC1c1ccc(O)c(OCC)c1 (centres undefined) | -5.7 | 0.0 | 2% | -4.3 | i | 2.6 | 0.68
O=C(Nc1cccc(-n2cnnn2)c1)c1cccc(Cl)c1 | -2.0 | 1.0 | / | 11 | i | 3.3 | 0.73
COc1ccc(C(C(=O)NCc2ccccc2)n2c(-c3ccncc3)nc3ccccc32)cc1 (centres undefined) | 1.9 | / | / | 1.7 | i | / | /
C=CCN(c1ccc(C(=O)Nc2ccc3c(c2)n(C)c(=O)n3C)cc1)S(C)(=O)=O | -1.9 | 3.6 | / | -5.1 | i | 5.7 | 0.65
Cc1ccccc1C(=O)Nc1ccc(N2CCCCCC2)cc1 | 28* | 4.1 | -9% | -3.1 | i | 0.8 | 0.74
CCCCC(CC)CNC(=O)C1C2C=CC(C2)C1C(=O)O (centres undefined) | / | 1.4 | 0% | -5.1 | / | 2.2 | 0.64
CC1C(=O)N2CCCc3cc(S(=O)(=O)NCc4ccc(F)cc4)cc1c32 (centres undefined) | -0.4 | -3.3 | 5% | -0.6 | i | 3.1 | 0.69
Fc1ccc(/C=N/c2c(-c3ccc(F)cc3)nc3n2CCS3)cc1 | / | -0.2 | -7% | -3.0 | / | / | /
Cc1noc(C)c1C(=O)Nc1nc(C23CC4CC(CC(C4)C2)C3)cs1 | / | 1.8 | 1% | 6.5 | / | 0.5 | 0.71
COC(=O)C1CCN(C(=O)CN2C(=O)c3ccccc3S2(=O)=O)CC1 | -14 | 1.0 | 10% | 0.6 | i | 3.3 | 0.67
CCN1CCN(c2cc(C)c3cc(NC(=S)NCCN(C)C)ccc3n2)CC1 | 7.6 | -0.4 | 6% | 0.2 | i | -9.3 | 0.69
CCN(Cc1ccccc1)c1ccc(/C=N/N=C(N)N)cc1 | 53* | 38* | 7% | 4.7 | i | / | /
COc1ccc(OC)c(C(=O)NC(CC(N)=O)c2ccc(N3CCC(N4CCCC4)CC3)c([N+](=O)[O-])c2)c1 (centres undefined) | 6.8 | 0.5 | -1% | -2.9 | i | -1.7 | 0.69
O=C(CCc1nc(-c2ccccc2)no1)NC1CCCCC1 | / | 0.1 | 3% | 0.3 | / | 2.4 | 0.74
Cc1ccc(NS(=O)(=O)c2c(C)[nH]c(C)c2C(=O)N2CCCCC2)c(Cl)c1 | 0.1 | 4.8 | / | -4.3 | i | 0.5 | 0.66
CCCCn1cnc2c(c1=O)c1nc3ccccc3nc1n2Cc1ccc2c(c1)OCO2 | 6.0 | 3.2 | / | -4.8 | i | -119 | 0.7
CCCc1cc(=O)[nH]c(SCC(=O)Nc2nonc2C)n1 | -3.2 | 2.9 | / | -1.3 | i | 1.5 | 0.66
C=CCSC1=N/C(=C\c2ccsc2)C(=O)S1 | / | -1.9 | 2% | 0.8 | / | 3.3 | /
COc1ccc(NC(=O)c2ccc3c(c2)OCO3)cc1[N+](=O)[O-] | -1.3 | ? | / | -3.9 | / | 2.3 | 0.67
CN(C)Cc1c(C(=O)N/N=C/c2cccc(OCc3ccc(F)cc3)c2)nnn1-c1nonc1N | -6.7 | -1.9 | / | 1.7 | i | / | /
CC1CCOC2(O1)C(=O)N(CN1CCN(c3ccccc3F)CC1)c1ccccc12 (centres undefined) | / | 6.9 | 1% | 3.7 | / | 1.5 | 0.66
CN(C(=O)CSc1nnc2ccccn12)c1c(N)n(Cc2ccccc2)c(=O)[nH]c1=O | / | 0.5 | / | -2.7 | / | -2.5 | 0.72
O=C([C@@H]1CC=C[C@@H]2CCN(C3CC3)C(=O)[C@@H]21)N1CCN(c2ccccc2)CC1 | -3.3 | 1.4 | / | -4.2 | i | 0.5 | /
O=C(OCN1C(=O)c2ccccc2C1=O)c1ccccc1 | / | ? | 20% | 1.1 | / | 1.7 | 0.68
Cc1cc(N2CCN(Cc3nc(-c4ccc(Cl)cc4)oc3C)CC2)cc(C)n1 | -12 | 0.6 | -5% | 4.8 | i | 2.6 | 0.66
CCOCCN1CCN(c2c(CC)c(C)nc3cc(-c4cc(OC)cc(OC)c4)nn23)CC1 | / | -0.1 | -1% | 2.8 | / | -6.8 | 0.73
CCOc1ccc(CN(C)C(=O)CNC(=O)Cc2cccc3ccccc23)cc1 | -9.4 | 0.3 | 3% | -0.8 | i | 5.5 | 0.69
Nc1ncnc2c1ncn2[C@@H]1O[C@H](C(=O)N2CCSC2)[C@@H](O)[C@H]1O | -2.5 | / | / | 1.0 | i | / | /
COc1ccccc1N(CC(O)COc1ccccc1C)S(=O)(=O)c1ccccc1 (centres undefined) | -1.9 | 2.6 | 25% | -1.2 | i | -0.6 | 0.7
COC(=O)CSc1nnc(-c2ccc(S(=O)(=O)N3CCCC3)cc2)o1 | -8.5 | 1.5 | / | 1.5 | i | 5.0 | 0.68
CC(C)C[C@H]1CN(CCCC[C@H]2CNC(=O)C(=O)N2Cc2ccccc2)C(=O)C(=O)N1Cc1ccccc1 | 1.9 | / | / | 2.7 | i | / | /
COc1ccccc1NCCC(=O)OCC(=O)Nc1cccc(S(=O)(=O)N(C)C)c1 | 2.0 | / | -9% | -2.7 | i | 0.7 | 0.67
CC(=O)NNc1nc(-c2ccccc2)c2cc(Cl)ccc2n1 | 1.4 | / | / | -1.8 | i | / | /
N#Cc1ccccc1COC(=O)c1cc(S(=O)(=O)N2CCOCC2)ccc1F | 0.6 | / | -2% | 0.0 | / | / | /
O=C(NCc1ccccc1C(F)(F)F)c1cccc2c1C(=O)c1ccc(N3CCCCC3)cc1S2(=O)=O | -1.1 | / | / | 3.7 | i | -0.4 | 0.71
CC1=C(C(=O)N(C(C)C)C(C)C)CC(CC(=O)NC2CCCC2)C(=O)N1CCCN1CCCC1=O (centres undefined) | -4.0 | / | / | 0.3 | i | / | /
CC1CN(C(=O)COC(=O)[C@@H](NC(=O)c2ccccc2Cl)C(C)C)CC(C)O1 (some centres undefined) | 2.3 | / | / | 2.5 | i | 0.5 | 0.71
CN(CCCNC(=O)c1ccc(CS(=O)c2ccc(Br)cc2)o1)Cc1ccccc1 (centres undefined) | 3.6 | 1.2 | / | -2.3 | i | 1.3 | 0.67
C=CCn1c(SCC(=O)c2c(N)n(C3CC3)c(=O)[nH]c2=O)nnc1-c1ccoc1C | 2.4 | / | / | -2.2 | i | 0.2 | 0.67
CCn1c(Cn2nnc(-c3ccccc3)n2)nnc1SCc1ccc(Cl)c(Cl)c1 | / | -4.9 | 0% | 1.8 | / | -0.3 | 0.7
O=C(O)c1cc(NN=Nc2cccc([N+](=O)[O-])c2)cc([N+](=O)[O-])c1 | 4.1 | 6.0 | 6% | 1.5 | / | 7.8 | 0.71
CCn1ccnc1CN(C)Cc1cn(-c2ccc(C)cc2)nc1-c1cccc(C)c1 | 24 | 0.6 | ? | -3.9 | i | -1.1 | 0.67
O=C(NCc1ccco1)c1cc2ccccc2o1 | / | -1.1 | -3% | 3.0 | / | -0.8 | 0.7
COc1cccc(NC(=O)COC(=O)c2c(C)nn(-c3ccccc3)c2C)c1 | 0.1 | / | / | 0.2 | i | 0.6 | 0.61
COc1cc(/C=C2/C(=O)N=C(N)N2C)cc(OC)c1OC | / | -1.6 | 0% | -3.9 | / | 0.9 | 0.71
Cc1noc(C)c1S(=O)(=O)Nc1ccc2c(c1)CC(=O)N([C@H](C)CO)C[C@H](C)[C@H](CN(C)S(=O)(=O)c1ccc(F)cc1)O2 | 1.6 | / | / | -1.7 | i | 2.0 | /
CCc1ccc(OCC(O)CN2CCN(c3ccccn3)CC2)cc1 (centres undefined) | -1.6 | 3.8 | / | 0.8 | i | 1.5 | 0.64
CC(Sc1nnc(C(F)(F)F)n1C)C(=O)Nc1ccc(S(N)(=O)=O)cc1 (centres undefined) | -2.4 | 3.1 | / | 1.1 | i | 3.9 | 0.69
Cc1cc(C)cc(N=Cc2ccc([N+](=O)[O-])s2)c1 | / | ? | 2% | 2.6 | / | 10 | 0.54*
Cc1ccc(N2CCCCn3c2nc2c3c(=O)n(CC(=O)O)c(=O)n2C)cc1 | / | 0.2 | 0% | 0.7 | / | 4.6 | 0.7
CCc1nc(SCC(=O)N2CCCCC2)c2c(=O)n(C)c(=O)n(C)c2n1 | -3.3 | 4.7 | / | 0.8 | i | 3.0 | 0.68
CC1Cc2ccccc2N1C(=O)CSc1nnc(CNc2ccccc2)o1 (centres undefined) | 0.0 | 3.8 | -2% | 2.7 | i | -0.3 | 0.74
CCOc1ccc(C(=O)Nc2cccc3nsnc23)cc1[N+](=O)[O-] | -2.1 | -1.2 | 6% | -2.4 | i | 3.2 | 0.64
CC(OC(=O)CCc1nc2ccccc2[nH]c1=O)c1ccccc1 (centres undefined) | -0.8 | -7.5 | 3% | 3.0 | i | -12 | 0.7
COc1ccc(OCC(=O)N/N=C2\CCc3ccccc32)cc1 | / | -1.7 | -2% | 3.1 | / | / | /
Cc1ccc2nc(/C(C#N)=C/c3ccc(O)c(O)c3)[nH]c2c1 | 0.5 | 28* | 17% | 19 | i | / | /

Profiles from above. Order of values: AF4-AF9 inh	RanGTP-Imp inh	Vif TR-FRET	HNF4A DNA FP	FGF22 binding	UCH37 inh	Ecoli growth
`Nc1ncnc2c1ncn2[C@@H]1O[C@H](C(=O)N2CCSC2)[C@@H](O)[C@H]1O` as listed: -2.5	/	/	1.0	i	/	/
`CCn1c(Cn2nnc(-c3ccccc3)n2)nnc1SCc1ccc(Cl)c(Cl)c1` as listed: /	-4.9	0%	1.8	/	-0.3	0.7

Next section:
SMILES | AF4-AF9 inh | RanGTP-Imp inh | Vif TR-FRET | HNF4A DNA FP | FGF22 binding | UCH37 inh | Ecoli growth
Cc1cccc(OC(C)C(=O)Nc2ccc(N3CCCCC3)cc2)c1 (centres undefined) | 7.2 | -1.1 | -1% | -3.4 | / | -1.6 | 0.69
O=C(/C=C/c1cccc([N+](=O)[O-])c1)N1CCN(Cc2ccc3c(c2)OCO3)CC1 | 1.5 | 1.5 | 22% | -2.2 | i | 1.1 | 0.69
CCN(CC(=O)Nc1ccc(NC(C)=O)cc1)C(=O)CN1C(=O)NC(C)(c2ccc3ccccc3c2)C1=O (centres undefined) | 1.2 | / | / | 1.2 | i | 3.3 | 0.64
Cc1c(N/N=C(\C#N)C(=O)c2ccc(Cl)cc2)c(=O)n(-c2ccccc2)n1C | / | -4.9 | 18% | -0.1 | / | 12 | 0.71
O=C(COC(=O)C1CC2C=CC1C2)Nc1ccccc1 (centres undefined) | / | -0.3 | / | 0.9 | / | -0.9 | 0.7
Cc1nnc2sc(SCC(=O)Nc3ccc(Cl)cc3)nn2c1=O | -26 | -1.9 | 6% | 0.9 | i | 5.8 | 0.68

Compound activity as filed in PubChem BioAssay.
